SmPrx2 inh: inhibitors of Schistosoma mansoni peroxiredoxin 2 | S. mansoni Prx2 activity coupled to TGR/GSH (TGR is thioredoxin glutathione reductase), NADPH fluorescence loss, qHTS; some inactives read as strong as hits | 0.07% of 65,000 active | Potency, µM; active means full or partial inhibition curve with a strong effect at the top dose; inconclusive means weaker partial or single-point curve; inactive means no accepted curve; note: series up to 57 µM; many of its hits are not listed in these tables
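Enzyme mix: 100 uM NADPH, 25 nM TGR, 700 uM GSH, 50 nM Prx2 in 100 mM phosphate pH 7.4, 10 mM EDTA, 0.01% Tween-20. 15 min RT with compound; NADPH/GSH added, H2O2 starts reaction; NADPH fluorescence read 8 min.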
LT uptake inh: blocks cellular internalization of anthrax lethal toxin; Cells, anthrax lethal toxin internalization, FRET ratio (460/530); Potency, µM (titrated, usually from 40 µM), without a hit: at the highest dose activity change, negative = inhibition, most hits filed as inhibitors; 0.67% of 70,000 active; AID 912; active = well fitted falling ratio curve with the 530 nm signal flat; inconclusive = other ratio curves, or a change in one channel alone; inactive = flat curves in the ratio and both channels; the % refers to the ratio; note: % is set by controls: 0 for no effect and ±100 for the full control effect; nearly all actives have a fitted effect of over 50% in size; tested in ME-180 cells; beta-lactamase reporter
Numbers without * were called inactive; ? = inconclusive; / = no result given; & = joins results of further samples; [ ] = another dose, or the depositor's remark. Potency is the fitted concentration of half-maximal effect.

SMILES	SmPrx2 inh	LT uptake inh
COc1cc2c3cc1Oc1cc(ccc1O)C[C@@H]1c4c(cc(OC)c(O)c4Oc4ccc(cc4)C[C@H]3[N+](C)(C)CC2)CC[N+]1(C)C	>57	-7%[8 µM]
Cc1nn(CC(=O)N(C)C)c(=O)c2ccccc12	>57	7%
Cc1ccc2c(CC(=O)O)coc2c1C	>57	-4%
O=c1[nH]c2ccc(Cl)cc2c(-c2ccccc2)c1N1CCOCC1	>57	?
C=CCn1c(SCc2cc(=O)n3ccsc3n2)nc2scc(C3CC3)c2c1=O	>57	8%
Cc1ccc2cc(CN(C(=O)C3CCCO3)C3CCCCC3)c(=O)[nH]c2c1 (configuration not stated)	>57	-4%
Cc1ccc(Cl)cc1N	/	-3%
O=C(Nc1ccc(S(=O)(=O)N2CCOCC2)cc1)c1cccs1	>57	8%
Clc1ccc(OCCn2ccnc2)c2ccccc12	>57	10%
Fc1ccc(-c2nnc(CN3CCC(c4nc5ccccc5s4)CC3)o2)cc1	>57	-3%

Shown with values under each structure: part of the list above.
Order of results – SmPrx2 inh | LT uptake inh
COc1cc2c3cc1Oc1cc(ccc1O)C[C@@H]1c4c(cc(OC)c(O)c4Oc4ccc(cc4)C[C@H]3[N+](C)(C)CC2)CC[N+]1(C)C
  >57 | -7%[8 µM]
Cc1nn(CC(=O)N(C)C)c(=O)c2ccccc12
  >57 | 7%

Next section
SMILES	SmPrx2 inh	LT uptake inh
CCC(=O)NCCc1cc2ccc(C)c(C)c2[nH]c1=O	>57	8%
O=S(=O)(NC1CCCCC1)c1ccc(S(=O)(=O)N2CCN3CCCC3C2)cc1 (configuration not stated)	>57	3%
CCOC(=O)c1cnc2c(C#N)c(C)nn2c1C	>57	-5%
Cc1cccc(OCCC(=O)NCC(c2ccccc2)N(C)C)c1 (configuration not stated)	>57	-13%
Nc1nc(SCC(=O)NCc2ccco2)[nH]c(=O)c1-c1ccccc1	>57	7%
CSC1=C(C#N)C(c2ccccc2C)C(C#N)=C(N)N1 (configuration not stated)	>57	-25%
COc1ccc(C2(C(=O)NCCN3CCOCC3)CCOCC2)cc1	>57	?
COCCNC(=O)Cn1cnc2c1c(=O)n(C)c(=O)n2C	/	-16%
CN1CCC[C@@H](CC2c3ccccc3Sc3ccccc32)C1	>57	?
CN(C)C(=O)[C@]1(C)C[C@H]1[C@H](NC(=O)CNC(=O)[C@@H]1CCCN1C(=O)[C@]1(C)C[C@H]1[C@H](NC(=O)OCc1ccccc1)c1ccccc1)c1ccccc1	/	-13%

Three compounds picked at random from those above:
SMILES	SmPrx2 inh	LT uptake inh
CCOC(=O)c1cnc2c(C#N)c(C)nn2c1C	>57	-5%
CCC(=O)NCCc1cc2ccc(C)c(C)c2[nH]c1=O	>57	8%
O=S(=O)(NC1CCCCC1)c1ccc(S(=O)(=O)N2CCN3CCCC3C2)cc1 (configuration not stated)	>57	3%

(next part)
SMILES	SmPrx2 inh	LT uptake inh
CCc1cccc(NC(=O)CN(C)S(=O)(=O)c2cccc3nsnc23)c1	>57	0%
CC1=C(C(=O)OC2CCCCC2)C(c2ccc(C)o2)C2=C(CC(C)(C)CC2=O)N1 (configuration not stated)	>57	8%
O=C(Nc1ccc2c(c1)OCCO2)C1CCN(C(=O)c2ccc(F)cc2)CC1	/	-5%
O=C(O)C(Cc1ccccc1-c1ccccc1)C(=O)O	>57	-29%[8 µM]
CCN1CCN(CC(O)COCc2ccccc2)CC1 (configuration not stated)	>57	-7%
O=C1[C@H]2[C@H]3[C@H](O)[C@H](O)C/C(=N/OC[C@@H](O)COCc4ccco4)[C@@H]3CC[C@@H]2C(=O)N1C1CCCCC1	/	-3%[8 µM]
COc1ccc(S(=O)(=O)N2CCCC(C(=O)NCc3ccco3)C2)cc1Cl (configuration not stated)	>57	-11%
Cc1ccc(S(=O)(=O)CCc2nnc(NC(=O)C3CCCO3)s2)cc1 (configuration not stated)	>57	-5%
Cc1noc(C(=O)NCc2ccco2)c1Cl	>57	-5%
CNc1oc(-c2ccc(OCc3ccccc3)cc2)nc1C#N	>57	-14%
CC1(C)CN=C(N2CCN(C3=NCC(C)(C)S3)CC2)S1	>57	-28%
COc1ccc(-n2nnnc2SC(C)C(N)=O)cc1 (configuration not stated)	>57	?
COC(=O)[C@@H](NC(=O)Nc1ccc(OC)cc1)C(C)C	>57	-16%
CC(=O)c1c(C)[nH]c(C(=O)N2CCC3(CC2)OCCO3)c1C	>57	-2%
COc1ccc(CC(=O)Nc2c3c(nn2-c2cccc(Cl)c2)CS(=O)(=O)C3)cc1	>57	/
COC(=O)[C@H](C)NC(=O)NCc1ccc(F)cc1	>57	14%
COCCn1c(NCc2ccc(C)cc2)nc2c1c(=O)[nH]c(=O)n2C	>57	?
Cc1c(C(=O)NCc2ccccn2)sc2nc(-c3ccc(F)cc3)cn12	>57	?
CC(C)COC[C@H](CN(Cc1ccccc1)c1ccccc1)N1CCCC1	>57&>57	9%[3.58 µM]
CCCC[C@@H]1C[C@H]1C(NC(=O)c1ccccc1)c1ccccc1 (some centres not stated)	>57	2%
COc1ccccc1NC(=O)N(CCN(C)C)Cc1cc2cc(C)ccc2[nH]c1=O	>57	-10%
C/C(NC1CCCC1)=C(/C#N)C(N)=O	>57	-1%
CC1=C(n2nnc3ccccc32)C(c2ccccc2)C(C#N)=C(N)O1 (configuration not stated)	/	0%
CC(=O)Nc1ccc(OC[C@@H](O)CNC(C)C)cc1	>57&>26	3%
CC(C)CC(=O)CN1C(=O)C2(OCCO2)c2ccccc21	>57	1%
COc1ccc2[nH]cc(CCNc3cc(-c4ccccc4C)ncn3)c2c1	>57	?
CC(Sc1nnc(-c2ccc(O)cc2)o1)C(=O)Nc1cccc2ccccc12 (configuration not stated)	>57	-8%
C=CCn1c2ccccc2c2nnc(SC(CC)C(=O)Nc3nc(C)c(C(=O)OCC)s3)nc21 (configuration not stated)	>57	16%
Clc1ccc(Sc2oc(/C=N/n3cnnc3)cc2Br)cc1	>57	-9%
Cc1cccc(NC(=O)c2cc(S(=O)(=O)NCc3ccco3)ccc2F)c1C	>57	-4%
CCOC(=O)N1CCN(C(c2ccc(F)cc2)c2sc3nc(C)nn3c2O)CC1 (configuration not stated)	>57	4%
CCCCCCn1c(CN2CCN(Cc3ccccc3)CC2)nc2c1c(=O)n(C)c(=O)n2C	>57	?
CC(C)(O)[C@H]1O[C@@H]2CC[C@]3(C)[C@@]4(C)c5[nH]c6ccccc6c5C[C@@H]4CC[C@]3(O)C2=CC1=O	>57	?
COc1ccc(Br)cc1CNC(=O)CCN1C(=O)COc2ccccc21	>57	-8%
CS(=O)(=O)N1CCCC(C(=O)N2CCc3ccccc3C2)C1 (configuration not stated)	>57	-3%
CSc1cccc(-n2c(C)cc(C(N)=O)c2C)c1	>57	18%
COC(=O)c1cc2c(=O)n3ccccc3nc2n(Cc2cccnc2)c1=N	>57	26%
Cc1nn(-c2ccccc2)c2c1C1(C(=O)Nc3ccccc31)N1C(=N2)Sc2ccccc21 (configuration not stated)	>57	7%
COc1ccc(S(=O)(=O)Nc2ccc(S(=O)(=O)N3CCCCC3)cc2)cc1	>57	6%
C=C1C(=O)C=C2CN(C(=O)c3ccccc3)[C@@](Cc3ccc(OC)cc3)(C(=O)OC)[C@@H]12	>57	?
Cc1onc(-c2c(F)cccc2Cl)c1C(=O)NCc1ccco1	/	5%
Cc1cc(S(=O)(=O)Nc2ccccc2C)ccc1F	>57	0%
O=C(O)CNCCc1ccccc1	>57	-10%[8 µM]
CCSC(N)=Nc1ccc(C(F)(F)F)cc1	>57	-1%
COc1ccc(OC)c(C(C(=O)NCc2ccco2)N(C(=O)Cn2nnc3ccccc32)C2CC2)c1 (configuration not stated)	>57	6%
CCCCOC(=O)Sc1nc2ccccc2o1	/	?
S=c1nc(C2CCCCC2)[nH][nH]1	>57	-15%
Cc1ccc(NC(=O)CN2CCC3(O)CCCCC3C2c2ccc3c(c2)OCO3)c(C)c1 (configuration not stated)	>57	?
CC1(C)OC(=O)N(c2cccnc2)C1(C)O (configuration not stated)	>57	0%
CN1CCN(c2ncc3ncc(=O)n(C[C@H]4CCCO4)c3n2)CC1	>57	-5%
Continuation.
SMILES	SmPrx2 inh	LT uptake inh
CCC(=O)Nc1nc(C)c(C(=O)N2CCCCC2)s1	>57	-2%
Cc1cc(NC(=O)CC(C)(C)C)nc2c1c(=O)oc1ccccc12	>57	8%
CC1CCCN(c2nc3c(c(=O)[nH]c(=O)n3C)n2Cc2ccccc2Cl)C1 (configuration not stated)	>57	16%
CN(C)CCCN1C(=O)C(=O)/C(=C(/O)c2ccncc2)C1c1ccccc1 (configuration not stated)	>57	12%
COc1ccc(NCc2nnc(SCC(=O)N3CCCc4ccccc43)o2)cc1	>57	-4%
CCc1ccccc1NC(=O)CSc1nc2ccccc2n1CC(=O)N(C)C	>57	-14%
COc1ccc(CNc2ccnc(-c3cccc(C#N)c3)n2)c(OC)c1	>57	?
Cc1cc(C(=O)COC(=O)C2COc3ccccc3O2)c(C)n1CC1CCCO1 (configuration not stated)	>57	?
O=C(O)C1CCC(=O)N1Cc1ccccc1Cl (configuration not stated)	>57	-6%
CC(C)CCNC(=O)NC(=O)COc1ccccc1C#N	>57	1%
COc1cc(C(=O)N2CCN(Cc3ccccc3C(F)(F)F)CC2)cc(OC)c1OC	/	5%
Cc1ccsc1C(=O)OCC(=O)Nc1sccc1C(N)=O	>57	-2%
CCOc1cc(CO)ccc1OCC(=O)N1CCCCC1	>57	16%
O=S(=O)(Nc1ccc(O)c(CN2CCCCC2)c1)c1ccccc1	>57	-8%
COc1cc2oc(-c3ccccc3)cc(=O)c2cc1OC	>57	6%
CCN1CCN(CCNC(=O)c2cn(Cc3ccccc3F)nn2)CC1	>57	10%
COC(=O)Nc1nc2ccc(C(=O)c3cccs3)cc2[nH]1	>57&>57&>57	?
COc1ccccc1NC(=O)COc1ccc(/C=N/n2cnnc2)cc1OC	/	-3%
CCCOc1ccc(NC(=O)C2CC(=O)N(C(C)C)C2)cc1 (configuration not stated)	>57	-2%
CCOc1ccc(N(CC(=O)NCc2ccccc2)S(C)(=O)=O)cc1	/	-6%

Profiles from above. Screens in order: SmPrx2 inh, LT uptake inh
O=C(O)CNCCc1ccccc1 is listed as >57, -10%[8 µM]
Cc1cccc(NC(=O)c2cc(S(=O)(=O)NCc3ccco3)ccc2F)c1C is listed as >57, -4%
COc1ccc2[nH]cc(CCNc3cc(-c4ccccc4C)ncn3)c2c1 is listed as >57, ?
CCC(=O)Nc1nc(C)c(C(=O)N2CCCCC2)s1 is listed as >57, -2%
Cc1onc(-c2c(F)cccc2Cl)c1C(=O)NCc1ccco1 is listed as /, 5%

(more compounds)
SMILES	SmPrx2 inh	LT uptake inh
COc1ccccc1NC(=O)CSc1nnc(-c2ccco2)o1	>57	?
O=C1NCCN1C(=O)N(c1ccccc1)c1ccccc1	>57	-12%
CCOC(=O)c1c(C)oc2cc(Br)c(OC(=O)N3CCOCC3)cc12	/	?
O=C(CSc1nnnn1C1CCCCC1)NCc1cccc(C(=O)O)c1	>57	/
CCC(C)NC(=O)C(Cc1ccccc1)NS(=O)(=O)c1cccc2nsnc12 (configuration not stated)	>57	-12%
Cc1cc(N=Cc2c(O)ccc3ccccc23)no1	/	-19%
COc1cc(C2/C(=C(\O)c3ccc4c(c3)CC(C)O4)C(=O)C(=O)N2CCCn2ccnc2)ccc1O (configuration not stated)	>57	-2%
COc1ccccc1Nc1cc(C(=O)NCCCN2CCOCC2)c2ccccc2n1	>57	-18%
N#Cc1ccc(CN2CCC3(CC2)CCN(C(=O)Oc2ccccc2)CC3)cc1	>57	2%
CC(C)(C)n1nnnc1C(c1ccncc1)N1CCN(C2CCCCC2)CC1 (configuration not stated)	>57	6%
COc1ccc(NC(=O)Nc2ccccc2C(=O)N2CCCC2)cc1	>57	17%
O=C(NCc1ccc2c(c1)OCO2)C1CCN(c2ccc(S(=O)(=O)N3CCCC3)cc2)CC1	>57	-4%
O=S1(=O)CC=C(CSc2nc3ccccc3[nH]2)C1	>57	5%
CN(C(=O)c1ccc(S(=O)(=O)NC2CCCC2)cc1)C1CCCCC1	>57	-4%
CC1=C(C(=O)N2CCOCC2)C(c2ccsc2)C2=C(CCCC2=O)N1 (configuration not stated)	>57	?
CCCc1ccc(OCCNC(C)=O)cc1	>57	6%
COc1ccc(CCCO[C@@H](Cn2ccnc2)c2ccc(OC)cc2)cc1	>57	?
Nc1ncnc2c1cnn2-c1ccccc1	>57	-10%
Cc1ccccc1CSc1nncn1N	>57	13%
CCC(C)[C@H](N)c1nnc(SCC(=O)Nc2cccc(Cl)c2)o1 (some centres not stated)	>57	/
COc1ccc2[nH]c3c(=O)n(CCCCC(=O)NCCN4CCCC4)c(=S)[nH]c3c2c1	>57	?
COc1ccccc1OCCCn1c(=O)oc2ccccc21	>57	4%

Exported comma-delimited: part of the list above.
structure,SmPrx2 inh,LT uptake inh
O=S1(=O)CC=C(CSc2nc3ccccc3[nH]2)C1,>57,5%
CN(C(=O)c1ccc(S(=O)(=O)NC2CCCC2)cc1)C1CCCCC1,>57,-4%
CC1=C(C(=O)N2CCOCC2)C(c2ccsc2)C2=C(CCCC2=O)N1 (configuration not stated),>57,?
CCCc1ccc(OCCNC(C)=O)cc1,>57,6%
COc1ccc(CCCO[C@@H](Cn2ccnc2)c2ccc(OC)cc2)cc1,>57,?

The list is partial, so the mix of outcomes need not match the whole.
